Screens (PubChem)
N370S GC mod = qHTS Assay for Inhibitors and Activators of N370S glucocerebrosidase as a Potential Chaperone Treatment of Gaucher Disease | Lysosomal acid glucosylceramidase (Homo sapiens), P04062 | N370S GC spleen homogenate, 4MU-glucoside fluorescence | Potency, µM (top dose mostly 59.4 µM), for inactives: at the highest dose activity change, negative = inhibition, most hits filed as inhibitors | hit rate 0.092% among 330,000;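 note: 0% = full enzyme activity and -100% = no enzyme basal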
KAT2A inh = qHTS Assay for Inhibitors of GCN5L2 | Histone acetyltransferase KAT2A (Homo sapiens), Q92830 | GCN5L2 HAT assay, ThioGlo1 CoA-SH fluorescence | Potency, µM (titrated, usually from 58.9 µM), for the others: at the highest dose activity change, negative = inhibition, hits mostly inhibitors | hit rate 0.21% among 390,000 | AID 504327, 2011
Target sequence (Q92830 whole entry, looked up): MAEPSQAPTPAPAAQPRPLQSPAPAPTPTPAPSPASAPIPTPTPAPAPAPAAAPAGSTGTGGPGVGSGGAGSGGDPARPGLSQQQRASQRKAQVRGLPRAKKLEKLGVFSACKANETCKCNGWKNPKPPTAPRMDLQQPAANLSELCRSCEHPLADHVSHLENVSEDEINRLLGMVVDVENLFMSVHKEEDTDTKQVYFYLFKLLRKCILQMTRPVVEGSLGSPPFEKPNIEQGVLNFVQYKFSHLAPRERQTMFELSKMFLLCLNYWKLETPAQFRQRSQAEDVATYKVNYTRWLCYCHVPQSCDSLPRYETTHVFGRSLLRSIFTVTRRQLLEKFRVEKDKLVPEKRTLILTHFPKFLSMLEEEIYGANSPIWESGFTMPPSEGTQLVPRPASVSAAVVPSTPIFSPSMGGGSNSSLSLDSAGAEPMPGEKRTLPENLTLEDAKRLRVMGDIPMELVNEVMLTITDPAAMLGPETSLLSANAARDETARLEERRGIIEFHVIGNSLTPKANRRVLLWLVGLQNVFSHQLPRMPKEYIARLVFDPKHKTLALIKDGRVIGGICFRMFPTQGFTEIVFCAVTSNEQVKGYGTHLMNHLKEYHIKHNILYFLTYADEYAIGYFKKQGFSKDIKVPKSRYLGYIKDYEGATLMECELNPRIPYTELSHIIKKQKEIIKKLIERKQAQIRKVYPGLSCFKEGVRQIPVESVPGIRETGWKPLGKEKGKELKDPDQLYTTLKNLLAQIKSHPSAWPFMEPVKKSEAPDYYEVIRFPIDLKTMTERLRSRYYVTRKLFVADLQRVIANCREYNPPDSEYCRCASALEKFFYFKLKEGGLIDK
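Titration-based screen in which CoA formation is detected via maleimide probe ThioGlo1 (50uM) turning fluorescent on thiol reaction; substrates H3(1-25) 75uM and acetyl-CoA 70uM, GCN5L2 20nM, 20 min incubation at room temperature.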
The depositor's hits bear a star; ? = inconclusive; . = not tested or not shown; & = joins results of further samples; [ ] = dose if it differs, or a comment. Calls come from the whole dose curve; as a rule, active = well fitted curve in the direction sought with a large enough effect; inconclusive = small, poorly fitted or top-dose-only effect, or another doubt; inactive = no such curve, though single readings can be large; an effect the other way counts as inactive or inconclusive. Unless noted, % is set by controls: 0 for no effect and ±100 for the full control effect; potency is the fitted concentration of half-maximal effect. Only part of the results is shown; most or all hits stand in other tables.

The opening 21 records (preview)
Each structure is followed by: N370S GC mod, KAT2A inh
CC(C)CC(=O)N1CCC(O)(CS(=O)(=O)Cc2ccccc2Cl)CC1
  1.0%, -9.4%
O=C(CSc1n[nH]c(=O)n1C1CC1)Nc1ccc(Cl)cc1Cl
  ., -0.6%
Cc1ccc(NC(=O)C2CCCN2C(=O)NC2CCCCC2)cc1F (stereo not drawn)
  -5.4%, -0.1%
Cc1cc(CNC(=S)Nc2ccc(S(=O)(=O)Nc3ncccn3)cc2)nn1C
  -3.2%, ?
CCc1nc2ccccc2n1CC(=O)NC1CCS(=O)(=O)C1 (stereo not drawn)
  ., -1.0%
CN(C)CCCNC(=O)C1CCNCC1
  -5.2%, -22.6%
COc1ccc(C2c3ccsc3CCN2C(=O)C(C)(C)C)cc1 (stereo not drawn)
  10.0%, -8.8%
COc1cc(S(=O)(=O)NC2CCCCC2C)ccc1-n1cnnn1 (stereo not drawn)
  -3.6%, 1.1%
Cc1cc(CNC(=O)CC2C(=O)NCCN2Cc2ccccc2)nn1C (stereo not drawn)
  4.0%, -11.9%
CCOc1ccc(NC2OC(CO)C(O)C(O)C2O)c([N+](=O)[O-])c1 (stereo not drawn)
  -0.1%, -4.5%
Cc1ccc(C(=O)N=c2sccn2C)o1
  -12.9%, -4.1%
CCN(CC)CCNC(=O)c1cc(-c2ccc(Br)s2)nc2ccccc12
  -16.7%, -3.0%&-4.0%
O=C(c1ccccc1Cl)N1CCC(O)(c2cccnc2)CC1
  2.7%, 2.3%
COc1ccccc1NS(=O)(=O)c1cccc(C(=O)N/N=C/c2ccc3c(c2)OCCO3)c1
  -8.6%, -6.1%
O=C(CCc1ccccc1)NNC(=O)COc1ccc(Br)cc1
  -9.4%, -5.8%
CC(O)(P(=O)(O)O)P(=O)(O)O
  -6.6%, 37.0%[activator]
O=C(Nc1nnc(C2=COCCO2)o1)c1cccc(F)c1
  -5.6%, -2.9%
CN(CC(=O)O)S(=O)(=O)c1cccs1
  -10.9%, -3.1%
Cc1ccc(-c2n[nH]c(=S)n2/N=C/c2ccc(C(=O)O)cc2)cc1
  -2.5%, -6.4%
CCCc1cc(=O)oc2cc(OCc3nn[nH]n3)ccc12
  -24.0%, -15.5%
COc1ccc(CC(=O)N2CCCc3ccccc32)cc1
  6.3%, 29.0%

All compounds of this part, previewed entries included:
Each structure is followed by: N370S GC mod, KAT2A inh
CC(C)CC(=O)N1CCC(O)(CS(=O)(=O)Cc2ccccc2Cl)CC1
  1.0%, -9.4%
O=C(CSc1n[nH]c(=O)n1C1CC1)Nc1ccc(Cl)cc1Cl
  ., -0.6%
Cc1ccc(NC(=O)C2CCCN2C(=O)NC2CCCCC2)cc1F (stereo not drawn)
  -5.4%, -0.1%
Cc1cc(CNC(=S)Nc2ccc(S(=O)(=O)Nc3ncccn3)cc2)nn1C
  -3.2%, ?
CCc1nc2ccccc2n1CC(=O)NC1CCS(=O)(=O)C1 (stereo not drawn)
  ., -1.0%
CN(C)CCCNC(=O)C1CCNCC1
  -5.2%, -22.6%
COc1ccc(C2c3ccsc3CCN2C(=O)C(C)(C)C)cc1 (stereo not drawn)
  10.0%, -8.8%
COc1cc(S(=O)(=O)NC2CCCCC2C)ccc1-n1cnnn1 (stereo not drawn)
  -3.6%, 1.1%
Cc1cc(CNC(=O)CC2C(=O)NCCN2Cc2ccccc2)nn1C (stereo not drawn)
  4.0%, -11.9%
CCOc1ccc(NC2OC(CO)C(O)C(O)C2O)c([N+](=O)[O-])c1 (stereo not drawn)
  -0.1%, -4.5%
Cc1ccc(C(=O)N=c2sccn2C)o1
  -12.9%, -4.1%
CCN(CC)CCNC(=O)c1cc(-c2ccc(Br)s2)nc2ccccc12
  -16.7%, -3.0%&-4.0%
O=C(c1ccccc1Cl)N1CCC(O)(c2cccnc2)CC1
  2.7%, 2.3%
COc1ccccc1NS(=O)(=O)c1cccc(C(=O)N/N=C/c2ccc3c(c2)OCCO3)c1
  -8.6%, -6.1%
O=C(CCc1ccccc1)NNC(=O)COc1ccc(Br)cc1
  -9.4%, -5.8%
CC(O)(P(=O)(O)O)P(=O)(O)O
  -6.6%, 37.0%[activator]
O=C(Nc1nnc(C2=COCCO2)o1)c1cccc(F)c1
  -5.6%, -2.9%
CN(CC(=O)O)S(=O)(=O)c1cccs1
  -10.9%, -3.1%
Cc1ccc(-c2n[nH]c(=S)n2/N=C/c2ccc(C(=O)O)cc2)cc1
  -2.5%, -6.4%
CCCc1cc(=O)oc2cc(OCc3nn[nH]n3)ccc12
  -24.0%, -15.5%
COc1ccc(CC(=O)N2CCCc3ccccc32)cc1
  6.3%, 29.0%
CCC(C)[C@H](NC(=O)Nc1ccc(Oc2ccccc2)cc1)C(=O)O (stereo partly drawn)
  16.3%, 2.2%
O=C(Nc1ccc2c(c1)OCCO2)c1cccs1
  2.3%, -7.8%
COC(=O)c1ccc(N2CCN(C)CC2)c(NC(=O)c2cc3ccccc3o2)c1
  4.4%, -1.8%
COc1ccc(-c2noc(CCCC(=O)O)n2)cc1
  -3.2%, -2.0%
COc1ccc(C2CC(c3cccc(OC)c3OC)n3nnnc3N2)cc1 (stereo not drawn)
  1.4%, -0.6%
CC(C)(C)C(=O)CNCC(=O)C(C)(C)C
  11.2%, -4.1%
CCCN(CCC)C(=O)Cc1ccc(F)cc1
  7.6%, -0.7%
COc1ccc(-c2nc(CS(=O)CC(=O)NC3CCCCCC3)c(C)o2)cc1 (stereo not drawn)
  -3.7%, -2.1%
COc1ccc(NC(=S)NCc2ccc(Cl)cc2)c(OC)c1
  4.3%, ?
COc1cc(C(=O)NCCC(=O)NCCc2ccc(Cl)cc2)cc(OC)c1OC
  -16.3%, 7.1%
O=C(CC1CCCCC1)Nc1ccccc1-c1ccccc1
  3.1%, 1.2%
O=C(COC(=O)c1ccccc1O)Nc1cccc(S(=O)(=O)N2CCCC2)c1
  ., -4.5%
COc1cc([C@H]2[C@@H]3CCCC[C@]3(O)CCN2CC(=O)Nc2ccc(C)cc2)ccc1O
  5.5%[2.35 µM], -4.6%
Cc1cccc(CNC(=O)CCCN2C(=O)CCn3nc(-c4cccn4C)cc32)c1
  ., -6.9%
CCc1ccc(C(C(=O)NC2CCCC2)N(C(=O)c2csnn2)C2CC2)cc1 (stereo not drawn)
  -1.2%, -2.2%
CCSC1=N/C(=C\c2cccnc2)C(=O)N1c1ccccc1
  -1.4%, -3.3%
COc1ccc(NC(=O)COC(=O)C2CC(=O)N(c3ccc(C)cc3)C2)cc1 (stereo not drawn)
  11.2%, -19.3%
CCn1cc2nc(SCC(=O)Nc3ccc(OC)cc3OC)n(Cc3ccc(Cl)cc3)c(=O)c2n1
  ., -7.8%
CC(C)(C)CC(=O)Nc1nnc(CCc2ccccc2)s1
  1.7%, -5.5%
CN(C)C(=O)c1ccc(NC(=O)COC(=O)Cn2cc(C(F)(F)F)ccc2=O)cc1
  ., -0.4%
CCOC(=O)Cn1c2ccc(OC)cc2c2nc3ccccc3nc21
  4.2%, -3.7%
CN(C)S(=O)(=O)NCc1ccc2c(c1)OCO2
  -2.2%, -1.0%
COc1cccc(NC(=O)c2ccc(NCCCN3CCC(C)CC3)c([N+](=O)[O-])c2)c1
  -12.2%, -2.9%
C=CCN(c1ccccc1)S(=O)(=O)c1c(C)[nH]c(=O)[nH]c1=O
  -8.3%, -7.5%
COc1cc(CO)ccc1Oc1nnnn1-c1ccc(C(N)=O)cc1
  -7.2%, -9.1%
O=C(CN1C(=O)C2C3C=CC(C3)C2C1=O)NC1CCCc2ccccc21 (stereo not drawn)
  -3.6%, -13.9%
COc1ccc(CNS(=O)(=O)c2ccc(F)c(C(=O)Nc3ccccc3OC)c2)cc1
  -1.2%, -12.0%
CCn1c2ccccc2c2cc(NC(=O)CCCN3C(=O)CCC3=O)ccc21
  4.9%, -2.0%
CCCC/C(C)=N/NC(=O)Nc1ccccc1
  6.6%, -3.4%

(more compounds)
Each structure is followed by: N370S GC mod, KAT2A inh
Cc1ccc2nc(N3CCN(CCO)CC3)nc(-c3ccccc3)c2c1
  ?, -7.6%
Clc1ccc(-c2nc(-c3ccccn3)no2)cc1Cl
  -0.4%, 1.1%
O=C1CCN(Cc2ccc(Br)cc2)CCN1[C@H](CO)c1ccccc1
  -12.5%, -4.6%
Cc1cc(Cl)ccc1OCC(=O)Nc1nc(-c2cccnc2)cs1
  2.2%, -7.6%
CCNc1nc(NC(C)C)nc(N(C#N)C(C)C(=O)N(CC)CC)n1 (stereo not drawn)
  1.6%, -1.6%
CCN1C(=O)S/C(=C/c2cn(C)c3ccccc23)C1=O
  23.7%, -10.2%
Cc1occc1C(=O)N(C)CC1CCCN(CCc2ccccc2F)C1 (stereo not drawn)
  -8.0%, 3.7%
Cn1ccnc1Sc1nc2ccccc2nc1NS(=O)(=O)c1ccccc1
  3.2%, -13.6%
CCN(CC)S(=O)(=O)c1ccc(C(=O)C(C#N)c2ccccn2)cc1 (stereo not drawn)
  -4.0%, -7.2%
Cc1ccc(-c2nn(-c3ccccc3)cc2C(=O)Nc2ccc(C)c(S(=O)(=O)N3CCOCC3)c2)cc1
  3.6%, -15.6%
CC(=O)N1c2ccc(S(=O)(=O)N3CCCC3)cc2CC1C(=O)NCc1ccc(OC(C)C)cc1 (stereo not drawn)
  -24.6%, -8.3%
CCCCN(C)Cc1c(O)ccc2c(=O)c(-c3ccccc3OC)coc12
  ?, -27.8%
NC1=NC(c2cccc(O)c2)n2c(nc3ccccc32)N1 (stereo not drawn)
  3.4%, 1.7%
CC(C)C[C@H](NC(=O)N1CC(=O)Nc2ccccc21)C(=O)N[C@H](Cc1c[nH]c2ccccc12)C(=O)O
  -21.3%, -27.8%
CC(C)OCCCNC(=O)CN1C(=O)c2cccc3cccc1c23
  3.1%, 0.6%
COc1cc2c(cc1OC)CN(C(=O)Nc1ccccc1)CC2
  -4.4%, -4.9%&-2.3%
COc1ccc(/C=N/Nc2nnc(C)n2N)cc1OC
  -2.1%, -0.5%
COc1nc(-c2ccccc2)nc(C)c1CC(=O)O
  3.4%, 5.3%
CCN(CC)C(=O)C1CCCN(Cc2sccc2C)C1 (stereo not drawn)
  2.2%, 3.6%
CC(=O)Nc1ccc(NC(=O)COC(=O)C2(c3ccc(Cl)cc3)CCCC2)cc1
  -2.2%, -7.0%
CCN(CC(=O)Nc1ccccc1OC)C(=O)CN1C(=O)NC(C)(c2ccc(C)cc2)C1=O (stereo not drawn)
  ., 0.1%
CCOC(=O)COc1ccc(/C=C2/SC(=Nc3ccccc3)N(Cc3cccnc3)C2=O)cc1OC
  -21.8%, -2.0%
NC(=O)c1cnn(Cc2ccc(Cl)cc2)c1N
  5.3%, 0.1%
CCc1cc(=O)oc2c3c(cc(OCC(=O)Nc4cccnc4)c12)OC(C)(C)CC3
  25.7%, -12.4%
O=C(Cn1cnc2c(oc3ccccc32)c1=O)N1CCN(c2ccccc2)CC1
  2.8%, .
COCCn1c(-c2ccc(F)cc2)nc2cccnc21
  1.8%, -0.4%
COc1ccc2c(c1OC)C(=O)OC2Nc1ncccc1C (stereo not drawn)
  5.6%[12.8 µM], -14.4%
[N-]=[N+]=NC1CC(CO)OC1n1ccc(=O)[nH]c1=O (stereo not drawn)
  8.0%, 1.0%
Cc1ccc(F)cc1NC(=O)c1cccc(N(C)C)c1
  6.5%[2.35 µM], -2.8%
Cc1ccc(-n2nc3c(=O)n(C(C)C(=O)NCc4ccco4)nc(C)c3c2C)cc1 (stereo not drawn)
  6.6%, -6.0%&-3.9%
Cc1ccc(O)c(NC(=S)NC(=O)c2ccccc2Cl)c1
  -6.9%, 2.3%
COc1ccc(CC(=O)NNC(=O)CCC(=O)Nc2cc(C)ccc2C)cc1
  5.5%, -7.4%
Cc1ccc(CCN2CC(C(=O)NCCCN(C)Cc3ccccc3)CC2=O)cc1 (stereo not drawn)
  -1.3%, 19.4%
O=C(Nc1nccs1)c1nc[nH]c1C(=O)N1CCc2ccccc2C1
  ., -5.0%
Cc1cc(-c2ccccc2)n2ncc(-c3ccccc3)c2n1
  15.4%, -7.6%
CSCCC(NC(=O)COc1ccccc1)C(=O)NCCOc1ccc(C)cc1 (stereo not drawn)
  -1.1%, -0.4%
Cc1onc(-c2c(Cl)cccc2Cl)c1C(=O)NCC1CCCO1 (stereo not drawn)
  2.7%, -4.1%
Cc1cccc(NC(=O)CN(c2ccc(C(C)C)cc2)S(=O)(=O)c2c(C)nn(C)c2C)n1
  -18.3%, -10.8%
O=C(c1cccc(S(=O)(=O)N2CCCCC2)c1)N1CCN(Cc2ccccc2)CC1
  ., -4.7%
Cc1onc(-c2ccccc2)c1C(=O)OCC(=O)Nc1cc(S(=O)(=O)N2CCOCC2)ccc1Cl
  14.4%, -16.9%
CCOc1ccc(S(=O)(=O)c2cn(Cc3ccccc3)c3ccc(OCC)cc3c2=O)cc1
  ., 0.6%
